VACV mCherry inh: vaccinia inhibition (mCherry reporter) | Vaccinia virus mCherry reporter infection, fluorescence; about a quarter of the inactives have no number | Potency, µM (top dose mostly 36.5 µM), for inactives: at the highest dose activity change, negative = inhibition, most hits filed as inhibitors | 0.63% of 310,000 active | AID 720579; active = well fitted inhibition curve with a large enough effect; inconclusive = small, poorly fitted or top-dose-only effect; inactive = no such curve, though single readings can be large or run the other way; tested in A549 cells; also: nearly all actives have a fitted effect of over 35% in size; inactives centre near -10
VACV Venus inh: inhibitors of vaccinia virus (Venus reporter); Vaccinia virus Venus reporter expression, fluorescence; Potency, µM (titrated, usually from 36.5 µM), inactives show top-dose activity change, negative = inhibition, most hits filed as inhibitors; 0.46% of 330,000 active; active means well fitted inhibition curve with a large enough effect; inconclusive means small, poorly fitted or top-dose-only effect; inactive means no such curve, though single readings can be large or run the other way; tested in A549 cells; also: nearly all actives have a fitted effect of over 30% in size; inactives centre near -10
Active calls of the source: *; i = inactive; u = inconclusive; x = not tested or not shown; & = joins results of further samples. % is scaled to controls: 0 for no effect and ±100 for the full control effect; potency is read from the fitted curve at half-maximal effect.

Values run as follows: VACV mCherry inh | VACV Venus inh
O=S(=O)(Nc1cccc(-c2ccc(N3CCOCC3)nn2)c1)c1ccc(F)c(C(F)(F)F)c1
→ -13.5% | -10.0%
O=C1NC[C@H](Cc2ccccc2)N(CC2CCN(CCC34CC5CC(CC(C5)C3)C4)CC2)C1=O
→ -3.2% | u
Cc1c(C)n(Cc2ccccc2)c2ccc(C(=O)N3CCN(c4ccccc4)CC3)cc12
→ -9.4% | -9.4%
O=C(Nc1nnc(Cc2ccc(Cl)cc2)s1)C1CCN(C(=O)c2ccco2)CC1
→ -3.6% | -20.7%
COc1cccc(NC(=O)Cn2c(=O)n(CCCCC(=O)NCCc3ccccc3)c(=O)c3ccccc32)c1
→ -22.5% | -10.5%
CCN(CC)C(=O)Cn1cc(S(=O)(=O)CC(=O)Nc2ccc(F)cc2F)c2ccccc21
→ i | -15.1%
Cc1cccc(N2CCN(Cc3ccc([N+](=O)[O-])o3)CC2)c1C
→ u | u
Cc1ccc(S(=O)(=O)N2CCC(C(=O)NCCCN3CCOCC3)CC2)cc1C
→ -23.5% | -1.7%
COCCCNCC(O)COc1cccc2[nH]c(C)cc12 (stereo unspecified)
→ -22.8% | -7.0%
Cc1cc(C(=O)COc2ccccc2C(N)=O)c(C)n1C
→ -7.9% | -5.6%
CCCCS(=O)(=O)/C=C\C=C/S(=O)(=O)CCCC
→ x | 11.2µM*
CC1CCCC(C)N1C(=O)c1ccc2c(c1)S(=O)(=O)c1ccccc1C2=O (stereo unspecified)
→ -10.8% | -11.5%
Cc1ccc(N2CCN(C(=O)c3c(C)oc4ncnc(N5CCOCC5)c34)CC2)c(C)c1
→ -3.2% | -17.7%
Cc1cc(OCC(=O)NCC2(N3CCN(C)CC3)CCCCC2)cc(C)c1Cl
→ -7.6% | -24.6%
Cc1cc(C(=O)Cn2cc([N+](=O)[O-])ccc2=O)c(C)n1CC1CCCO1 (stereo unspecified)
→ i | -15.0%
CSC1=NCCN1S(=O)(=O)c1ccc(Cl)cc1
→ i | -0.5%
Cc1nc(-c2ccc([N+](=O)[O-])cc2)sc1C(=O)O
→ -3.3% | -9.1%
Nc1ccccc1-c1nnc(-c2ccccc2N)n1N
→ -25.6% | -7.6%
CCN(CC)S(=O)(=O)c1ccc(NC(=O)[C@H](CSCc2ccccc2)N2Cc3ccccc3C2=O)cc1
→ u | -24.1%
CCn1c(CN2CCN(C)CC2)nc2cc(NC(=O)c3ccc([N+](=O)[O-])cc3)ccc21
→ -14.4% | -5.8%
CCOc1ccc(S(=O)(=O)N2CCC(C(=O)N3CCOCC3)CC2)cc1Cl
→ -7.1% | -19.5%
O=[N+]([O-])C(/C=C(/Cl)[N+](=O)[O-])=C(N1CCCCC1)N1CCCCC1
→ -5.2% | -14.1%
O=C(Cc1cccs1)N1CCN(S(=O)(=O)c2ccccc2)CC1
→ i | -5.3%
COc1cc(-c2noc(-c3ccc(NCC4CCCO4)c([N+](=O)[O-])c3)n2)cc(OC)c1OC (stereo unspecified)
→ -11.5% | -8.9%
NS(=O)(=O)c1ccc(CNC(=O)CCCSc2ccccc2)cc1
→ -4.7% | -1.9%
COc1ccc(CC(=O)OCCN(C)C)cc1
→ i | -16.5%
Cc1ccc(Cl)cc1N1CCN(C(=O)c2cc3c(-c4ccccc4F)nn(C)c3s2)CC1
→ -3.1% | 1.7%
COc1ccc(Br)cc1/C=N/Nc1cccc(C(=O)O)c1
→ -23.7% | 0.5%
CCn1c(SCC(=O)Nc2oc(C)c3c(C)n[nH]c(=O)c23)nnc1-c1ccco1
→ -10.6% | -13.4%
COc1ccc(NC(=O)c2ccccc2NC(=O)C2CCCO2)cc1 (stereo unspecified)
→ -12.2% | -3.9%

More structures.
Values run as follows: VACV mCherry inh | VACV Venus inh
Cc1ccc(-c2cc(C(=O)N/N=C/c3ccc(F)cc3)n[nH]2)o1
→ 13.5% | 6.5%
Cc1ccc2c(n1)sc1c(-c3ccccc3)c(C#N)c(N)nc12
→ -2.0% | -18.0%
c1ccc(Cn2nnnc2CN2CCN(c3ncccn3)CC2)cc1
→ -9.9% | -6.4%
CCCS(=O)(=O)Nc1cccc(-c2cn3ccc(C)cc3n2)c1
→ u | -27.5%
COc1ccc(NC(=O)C2C3CCC(C3)C2C(=O)O)cc1OC (stereo unspecified)
→ -15.1% | -3.0%
OCC(O)CN1CCCC1 (stereo unspecified)
→ i | -6.0%
COc1ccc(Cn2cc(CN3CC(N4CCN(C5CCN(C)CC5)CC4)CS3(=O)=O)nn2)cc1 (stereo unspecified)
→ 1.9% | 3.5%
Fc1ccc(F)c(NC2=NCCCCC2)c1
→ i | -4.8%
CN(C)C(CNC(=O)c1cccc(C#N)c1)c1ccco1 (stereo unspecified)
→ -4.5% | -8.9%
CC[C@]12c3[nH]c4ccc(OC)cc4c3CCN1C(=O)C(CC(=O)NCc1ccco1)C[C@@H]2C(=O)N1CCN(C(=O)C2CC2)CC1 (stereo partly specified)
→ -11.9% | -6.0%
COc1ccc(-c2c(C#N)c(SCC(=O)Nc3ccc(C)cc3)nc(C)c2C(=O)Nc2ccccc2)cc1
→ 0.3% | -9.3%
COCc1[nH]nc2c1C(c1cc(OC)c(O)c(OC)c1)C(C#N)=C(N)O2 (stereo unspecified)
→ -21.3% | -11.6%
CC1CCCC(NS(=O)(=O)c2ccc3c(c2)OCCO3)C1C (stereo unspecified)
→ -27.3% | -11.0%
COc1ccc(NC(=O)CCNC(=O)Cn2ccc3ccccc3c2=O)cc1Cl
→ 3.0% | -1.6%
Cc1cc[n+](CC(=O)c2ccc(F)cc2)cc1
→ -15.6% | -7.9%
Cc1cccc(OCC(=O)NCCNC(=O)c2cccnc2)c1
→ -13.4% | -1.1%
COC(=O)c1c(NC(=O)CN2C(=O)C(=O)N(CC(C)C)C2=O)sc2c1CCCCC2
→ -6.6% | -12.4%
O=C(Cc1ccsc1)NNC(=O)c1ccccc1Cl
→ -22.5% | -0.6%
COc1cc(CC(=O)Nc2cc(S(C)(=O)=O)ccc2Cl)cc(OC)c1OC
→ i | -4.1%
Cc1cc(-c2ccccc2)n(-c2ccc(C(=O)N3CCN(c4ncccn4)CC3)cc2)n1
→ -13.0% | -20.0%
CCCCCNC(=O)c1nc(-c2c(F)cccc2F)oc1-c1ccccc1
→ -2.1% | -11.5%
CCC(=O)N1CCc2cc(S(=O)(=O)NCCC(=O)NC(C)c3ccccc3)ccc21 (stereo unspecified)
→ -5.4% | -3.5%
CN1C(=O)Cn2c1nc1ccccc12
→ x | -9.6%
NC(=O)C1CCN(C(=O)c2cccc(S(=O)(=O)N3CCc4ccccc4C3)c2)CC1
→ -14.4% | -7.5%
Fc1ccc(-c2nc3c(-c4ccc(F)cc4)cnn3cc2CCN2CCOCC2)cc1
→ u | u
COC(=O)CC1C(=O)NCCN1C(=O)c1oc2c(C)c(C)ccc2c1C (stereo unspecified)
→ i | -21.2%
NC(=O)C1(N2CCCCC2)CCN(C(=O)CSc2nc(C(F)(F)F)cc(=O)[nH]2)CC1
→ x | -12.2%
Cc1ccc2c(cnn2C(=O)CCC(=O)NC2CCCC2)c1
→ i | -20.1%
Cc1ccc(C(=O)Nc2ccccc2Oc2ccccc2)cc1[N+](=O)[O-]
→ i | -14.5%
COc1ccc(CNC(=O)CCCn2c(=O)c3cccn3c3ccc(F)cc32)cc1OC
→ -6.4% | -6.1%

At a glance, part of the list above.
Values run as follows: VACV mCherry inh | VACV Venus inh
Cc1ccc(-c2cc(C(=O)N/N=C/c3ccc(F)cc3)n[nH]2)o1
→ 13.5% | 6.5%
Cc1ccc2c(n1)sc1c(-c3ccccc3)c(C#N)c(N)nc12
→ -2.0% | -18.0%

Next entries follow:
Values run as follows: VACV mCherry inh | VACV Venus inh
COc1ccc(C2C(C#N)=C(N)Oc3cc(C)n(CCN4CCOCC4)c(=O)c32)cc1OC (stereo unspecified)
→ x | -10.3%
Cc1cc(/C=C2\SC(=S)NC2=O)c(C)n1C
→ -16.2% | 0.7%
Nc1c(C(=O)Nc2ccc(F)cc2)sc2nc(-c3ccco3)ccc12
→ -13.1% | -16.0%
Cc1ccc2oc(=O)c3cc(C(=O)NCCCOC(C)C)sc3c2c1
→ 7.0% | 4.1%
COCCCNC(=S)NNC(=O)c1ccc2c(c1)OCO2
→ x | -8.5%
COc1cc2c(C#CCCCO)c(-c3ccsc3)oc(=O)c2cc1OC
→ i | -24.8%
N#C/C(=C/C1=C(N2CCOCC2)C(=C/c2ccc(Cl)cc2Cl)/CC1)C(=O)Nc1ccccc1F
→ -11.0% | 28.8%
CCOc1ccc(N)c(SSc2cc(OCC)ccc2N)c1
→ -7.8% | -16.0%
COc1nc(N)nc2c1ncn2C1OC(CO)CC1O (stereo unspecified)
→ -19.9% | -11.5%
O=C(Cc1ccccc1)NNC(=S)Nc1ccc(Cl)cc1
→ -13.5% | -11.2%
Oc1c(Cl)cc(Cl)cc1C=Nc1cc(C(F)(F)F)ccc1N1CCc2ccccc2C1
→ i | -18.7%
Cc1cccc(N2CCN(CC(O)COc3ccc(Cl)cc3)CC2)c1 (stereo unspecified)
→ -9.3% | u
COc1ccc(-n2c(/C=C/c3ccc4c(c3)OCO4)nc3ccccc3c2=O)cc1
→ i | -16.8%
C=CCN(CC=C)C(=S)NC(=O)c1ccc(C)c(Br)c1
→ -3.2% | -11.8%
O=c1c2cc3c(cc2nc2sc(Nc4ccc(F)c(Cl)c4)nn12)OCO3
→ -3.4% | -2.1%
CCCN(C(=O)CCn1cnc2onc(-c3ccc(F)cc3)c2c1=O)c1ccccc1C
→ -20.9% | -11.5%
COc1ccc(OC)c(-n2c(SCC(=O)Nc3cc(C)on3)nnc2-c2c[nH]c3ccccc23)c1
→ -7.9% | -22.5%
Cc1csc(NC(=O)CCc2ccc(S(=O)(=O)N3CCOCC3)cc2)n1
→ x | -24.0%
Cc1ccc(NC(=O)CCCN2C(=O)NC(C)(C)C2=O)cc1
→ -23.0% | -1.6%
Cc1ccc(S(=O)(=O)N(CC(O)CN(C)C)c2ccccc2)cc1 (stereo unspecified)
→ -12.1% | u
Cn1c(SCC(=O)c2ccc3c(c2)Cc2ccccc2-3)nnc1-c1cccc(N)c1
→ i | -13.4%
Cc1ccc(NC(=O)CCc2c(C)nn(-c3ccc(N4CCOCC4)nn3)c2C)c(C)c1
→ -11.8%&-8.6% | -5.2%&-10.4%
Cc1cc(C)n(-c2ccc(Cl)c(C(=O)OCC(N)=O)n2)n1
→ i | -0.7%
NCCCNC(=O)c1ccc(/C=N/O)nc1
→ 6.0% | -5.0%
CN(C(=O)C1CCOC1)c1nnc(-c2cnccn2)s1 (stereo unspecified)
→ -23.3% | -2.6%
CCOC(=O)c1ccc(NC(=S)N2CCN(c3ccccn3)CC2)cc1
→ i | -7.7%
CN1CCc2cccc3c2[C@@H]1Cc1ccc(O)c(O)c1-3
→ -16.5% | -12.3%
C=C(C1=CCN(S(=O)(=O)C(C)(C)C)[C@H]1CCO)c1ccccc1
→ i | 0.0%
N=C1/C(=C\c2ccc(Br)o2)C(=O)N=C2SC(CC(=O)N3CCOCC3)=NN12
→ -7.0% | 22.4%
COc1ccccc1NS(=O)(=O)CC12CCC(CC1=O)C2(C)C (stereo unspecified)
→ -0.1% | -3.3%

Continuation:
Values run as follows: VACV mCherry inh | VACV Venus inh
CCOc1ccc(C2CC(=O)c3c([nH]c(C(=O)OC4CCCCCC4)c3C)C2)cc1 (stereo unspecified)
→ -4.4% | -11.2%
Nc1c(C(=O)Nc2ccccc2Cl)c2ccccn2c1C(=O)c1ccccc1
→ -8.5% | 3.6%
COc1ccc(Cc2c(-c3cccc(Br)c3)nc3cc(C)c(Br)c(C)n23)c(C)c1
→ -6.1% | -4.4%
O=C(NCC1CCN(S(=O)(=O)c2ccccc2)CC1)Nc1ccc(F)cc1F
→ -7.0% | 17.7%
CC1(C)CC(=O)CC(C2(O)C(=O)N(Cc3ccccc3)c3ccccc32)O1 (stereo unspecified)
→ -7.2% | -0.2%
CCCCOc1ccc(C(=O)NCC(=O)N(C)CC(=O)Nc2ccc(N3CCOCC3)cc2)cc1
→ -6.2% | -21.1%
COc1ccc(-n2c(/C=C\c3ccccc3F)nc3ccccc3c2=O)cc1OC
→ -14.2% | -24.7%
CCOC(=O)c1c(NC(=O)C2CCCN2S(=O)(=O)c2cccc3nsnc23)sc(C)c1C (stereo unspecified)
→ -0.9% | -2.2%
O=C(NCc1ccc(Cl)cc1Cl)c1ccccn1
→ -13.2% | -10.8%
CC(=O)O[C@]1(C(C)=O)CC[C@H]2[C@@H]3C=CC4=CC(=O)C=C[C@]4(C)[C@H]3CC[C@@]21C
→ -29.8% | -21.7%
COc1cc(Cl)c(C)cc1Nc1nc2ccccc2n2cnnc12
→ -11.2% | -10.4%
Cc1ccc(-n2ncc3c(NCC(C)C)ncnc32)c(C)c1
→ -13.1% | -8.8%
COC(=O)c1c(OCc2ccccn2)cc(=O)n2c1CCN(C(=O)c1cc(C(C)C)nn1C)CC2
→ i | 0.0%
C[C@@H]1Cc2[nH][nH]c(=O)c2[C@H](c2ccc(Cl)cc2)O1
→ 3.1% | -5.3%
Cc1ccc(OC(C)C)c(CN(CCO)CCO)c1
→ x | -7.8%
O=C(CCc1ccccc1)NNC(=O)c1ccccc1Cl
→ -17.7% | 1.0%
CCc1ccc(OCC(=O)NC(NC(=S)Nc2ccccc2)C(Cl)(Cl)Cl)cc1 (stereo unspecified)
→ u | u
CCCCC(CCc1ccccn1)C(=O)c1ccccc1 (stereo unspecified)
→ i | -7.3%
CC1CCN2c3cc(Cl)ccc3CC3(C(=O)OC(C)(C)OC3=O)C2C1 (stereo unspecified)
→ -19.2% | -23.5%
COCCNc1nc(NCc2cccc(OC)c2OC)c2sccc2n1
→ i | -9.9%
CCC(=O)N1CCC1(C)C(=O)NS(=O)(=O)c1cccc(C#N)c1 (stereo unspecified)
→ -11.8% | 1.9%

Source: PubChem
